# Bioassay records: PubChem, National Center for Advancing Translational Sciences (NCATS)
# CtBP-E1A blk: inhibitors of CtBP/E1A interaction; activity change, % (concentration not given with the values); AlphaScreen GST-E1A/His-CtBP binding, 1536-well; active compounds read low; control for the full effect not named in the record; 0.49% of 340,000 active; in the data active means activity change below about -65%; inconclusive means about -30% to -65%; inactive means above about -30%; note: % is set by controls: 0 for no effect and ±100 for the full control effect
#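 Steps: dispense buffer (Tris pH 8.0, NaCl 300 mM, TCEP 1 mM, BSA, Tween 20); add 5X protein mix (GST-E1A, His-CtBP, 125 nM each); pin 23 nL compound; 2 h at 37 °C, dark; add 5X beads (50 ug/mL); 1 h; read.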
# D2 ag: activates the human D2 dopamine receptor. DiscoveRx PathHunter D2 beta-arrestin, luminescence, 90 min; 100% = 57 uM dopamine signal. activation, % (test concentration not listed). 0.084% of 360,000 active. AID 624465; in the data active = activation above about 40%; inconclusive = about 15% to 40%; inactive = below about 15%; note: compound concentration not given in the record; the text of the record calls up to 30% inactive
#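 DiscoveRx PathHunter D2 beta-arrestin cells (2,100/well) attached overnight, then compound-stimulated 90 min at 37 C in HBSS/10 mM HEPES/0.1% Tween-20 buffer; beta-galactosidase complementation read by luminescence after 1 h at ambient temperature. Dopamine 57 uM final (EC100) as control.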
# D2 potentiator: positive allosteric modulators of human D2 dopamine receptor. 0.23% of 360,000 active. AID 624464. potentiation, % (concentration not given with the values). P14416. DiscoveRx D2 beta-arrestin cells, luminescence, 90 min; 100% = 57 uM dopamine signal; active = potentiation of 50% or more; inconclusive = 30% to 50%; inactive = 30% or less;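 note: compound concentration not given in the record; tested on top of an EC20 dose of dopamine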
#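 D2 cells co-treated with compound plus 50 nM dopamine (EC20) for 90 min at 37 deg C to detect potentiation. Beta-arrestin recruitment was read as enzyme-fragment luminescence after 1 h at ambient temperature. Full response was set by 57 uM dopamine.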
# PINK1 expr mod: PINK1 expression modulation; PINK1 immunofluorescence, high-content cytometry, 24 h; Potency, µM (doses to about 76.6 µM), for the others: top-dose activation (PINK1 increase), actives largely listed as activators; 0.2% of 410,000 active; AID 624263; active = well fitted activation curve with a large enough effect; inconclusive = small, poorly fitted or top-dose-only effect; inactive = flat fitted curve, though single readings scatter; cell line not stated here;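 note: potency is the fitted concentration of half-maximal effect; % of control where 0% means no effect; nearly all actives have a fitted effect of over 65% in size; a mitochondrial uncoupler was the plate control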
#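 Stable cell line treated 24 h with compounds at 5 concentrations (CCCP controls), then fixed and immunostained for PINK1 plus nuclear and cell stains; PINK1 immunofluorescence quantified by laser-scanning microplate cytometry.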
# TRPML1 agonist: activates the human TRPML1 channel. TRPML1-expressing cells, Ca2+ dye fluorescence, FDSS; host cell line not named in the record; reference of the full effect not given here. activation, % (test concentration not listed). 0.12% of 410,000 active. AID 624414; in the data active = activation above about 50%; inconclusive = about 30% to 50%; inactive = below about 30%; note: 0% is about no effect; the text of the record puts the active cut at 80%
#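 Agonist activity was taken from a 110 s kinetic Ca2+ dye read on the FDSS after pinning compounds onto TRPML1-DL cells. The cells were seeded at 1,500/well with Tet inducer, incubated about 16 h, then dye-loaded at room temperature.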
# Six1-Eya2 inh: blocks human Six1 binding to Eya2 | Q15475+O00167 | AlphaScreen GST-Six1/His-Eya2 binding, biochemical; active compounds read low; control for the full effect not named in the record | activity change, % (concentration not given with the values) | 0.56% of 360,000 active; in the data active = activity change below about -65%; inconclusive = about -30% to -65%; inactive = above about -30%; note: % is set by controls: 0 for no effect and ±100 for the full control effect
# Target sequence (O00167 whole entry, looked up): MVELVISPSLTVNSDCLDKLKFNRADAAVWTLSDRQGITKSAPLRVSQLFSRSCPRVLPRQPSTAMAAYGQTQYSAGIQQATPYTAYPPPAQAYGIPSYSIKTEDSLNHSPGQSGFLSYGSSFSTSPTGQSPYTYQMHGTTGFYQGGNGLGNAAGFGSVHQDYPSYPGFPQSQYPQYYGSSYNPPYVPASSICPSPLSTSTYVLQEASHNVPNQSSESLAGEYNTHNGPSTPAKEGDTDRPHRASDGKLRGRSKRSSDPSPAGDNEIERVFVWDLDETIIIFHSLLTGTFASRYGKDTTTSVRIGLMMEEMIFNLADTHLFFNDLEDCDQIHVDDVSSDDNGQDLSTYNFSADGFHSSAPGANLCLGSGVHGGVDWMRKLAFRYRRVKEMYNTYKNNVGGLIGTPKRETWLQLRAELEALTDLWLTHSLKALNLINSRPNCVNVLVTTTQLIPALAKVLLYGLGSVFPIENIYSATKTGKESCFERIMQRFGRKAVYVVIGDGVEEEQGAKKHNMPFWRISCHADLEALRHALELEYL
# Target sequence (Q15475 whole entry, looked up): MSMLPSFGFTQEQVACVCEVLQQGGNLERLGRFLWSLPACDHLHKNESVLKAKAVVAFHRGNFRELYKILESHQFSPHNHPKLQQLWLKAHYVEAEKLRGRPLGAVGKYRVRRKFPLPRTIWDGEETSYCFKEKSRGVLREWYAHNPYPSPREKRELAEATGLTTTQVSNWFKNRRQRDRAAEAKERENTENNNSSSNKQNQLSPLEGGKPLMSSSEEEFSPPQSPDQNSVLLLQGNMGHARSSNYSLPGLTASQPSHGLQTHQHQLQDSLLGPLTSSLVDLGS
#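 AlphaScreen luminescence read after one hour at 37 °C in darkness. Pin-transferred compounds met GST-Six1 and His-Eya2 protein (5X stock 250 nM/500 nM) plus glutathione donor and Ni-chelate acceptor beads (5X, 50 ug/mL).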
# * hit, by the source's call; ? = inconclusive; nt = no result given; & = joins results of further samples; [ ] = dose if it differs, or a comment.
# Below each compound – CtBP-E1A blk | D2 ag | D2 potentiator | PINK1 expr mod | TRPML1 agonist | Six1-Eya2 inh
> CC(C)(C)NC(=O)N1CCn2cccc2C1c1ccccc1F (configuration not stated)
 : -2 | 1.5 | 6 | 4.6% | -0.2 | -1
> COC(=O)[C@@]12CCCN1[C@H](c1ccc(-c3ccccc3)c(OC)c1)[C@H]1C(=O)N(C)C(=O)[C@H]12
 : nt | -1.1 | -9 | -0.4% | -0.2 | -7
> Cc1cc(F)ccc1-c1cc(C(=O)NCC2CCCCC2)[nH]n1
 : 2 | -2.8 | -9 | 2.8% | 3.1 | -5
> O=C(N/N=C/c1cccc([N+](=O)[O-])c1)C1COc2ccccc2O1 (configuration not stated)
 : nt | 2.7 | -1 | -0.2% | 3.4 | 18
> COc1ccc(CCNC(=O)C(=O)N2CCCC2)cc1OC
 : 8 | 2.8 | 10 | 1.0% | 2.9 | 3
> CNS(=O)(=O)Cc1ccc2[nH]cc(CCN(C)C)c2c1
 : 1&1 | -6.7&2.1 | 4&-2 | 4.7%&2.6%&0.9% | -0.6&-0.5 | -5&-3
> CS(=O)(=O)Nc1ccccc1C(=O)NCc1ccco1
 : 1 | -4.3 | 3 | -0.7% | -0.2 | -4
> COc1cc(CCCN2C(=S)NC[C@@H]2Cc2ccccc2)cc(OC)c1OC
 : 0 | -1.7 | -11 | 0.4% | -0.7 | 0
> O=C(Nc1nnc(CCc2ccccc2)s1)c1cccc(F)c1
 : nt | -0.8 | -20 | 1.7% | 1.5 | 7
> CC(C)(C)NC(=S)N1CCC2CC1c1cc(-c3ccc4c(c3)OCO4)ccc12 (configuration not stated)
 : 0 | -4.1 | -7 | 0.5% | 0.2 | 10
> Cc1c(C(=O)O)cnc2cc(-c3ccc(Cl)cc3)nn12
 : 3 | -6.4 | -4 | 0.6% | -1.1 | -4
> O=C(O)C1C2CCC(C2)C1C(=O)NCCc1cccc(Cl)c1 (configuration not stated)
 : -1 | 0.9 | -16 | 0.0% | 0.5 | -5
> COc1ccc(NC(=S)N2CCC(NC(=O)c3ccc(F)cc3)CC2)cc1
 : 4 | -1.3 | -4 | -2.5% | -0.4 | 1
> COc1ccc(-n2ncc3c(NCc4ccco4)ncnc32)cc1
 : -14 | 1.5 | -1 | 7.6%[38.3 µM] | 0.3 | -8
> CCOc1ccc(-c2cccc(NC(=O)c3ccc(Br)o3)c2)nn1
 : 1 | -11 | -19 | 3.0% | -0.9 | -8
> NC(=O)c1c(-c2ccc(Cl)cc2Cl)csc1NC(=O)Cc1ccccc1
 : -3 | -3.4 | 2 | 11% | 0.8 | -21
> CCOc1ccc(C(=O)NC(=S)Nc2ccc(NC(=O)c3ccco3)c(C)c2)cc1[N+](=O)[O-]
 : 1 | -4.1 | -2 | 7.0% | 0.4 | 1
> CCCOc1ccc(F)cc1-c1cc(C(=O)Nc2cc(OC)c(OC)c(OC)c2)[nH]n1
 : -5 | 7.7 | -1 | 0.1% | -0.8 | -4
> Cc1ccc(/C=N/NC(=O)c2ccc(-n3cnnn3)cc2)cc1
 : 0 | -0.9 | 10 | 4.1% | 0.6 | 1
> O=C(NCCOCc1ccc(Cl)cc1)c1ncn[nH]1
 : 5 | -2.4 | 7 | 0.3% | -0.5 | 6
> CC1CCC(NC(=O)COc2ccccc2C(N)=O)CC1 (configuration not stated)
 : -2 | -2.2 | -15 | -0.5% | -0.4 | 4
> Cc1cc(C)n(S(=O)(=O)c2ccc(F)cc2)n1
 : nt | -3.7 | -2 | 0.5% | nt | 3
> CNc1cnc(-c2ccc(O)c(OC)c2)cn1
 : -18 | -3.9 | -5 | 0.7% | 0.1 | -14
> CN1CCN(c2nc(-c3cccc([N+](=O)[O-])c3)nc3ccccc23)CC1
 : -12 | -4.5 | -8 | 2.6% | 0.6 | -14
> CCCNC(=O)c1cccc(Cn2cc(Br)c([N+](=O)[O-])n2)c1
 : -2 | 0.2 | -15 | -0.5% | 0.0 | -1
> COC(=O)c1ccc(-c2c(-c3ccccc3)ncc3cc(F)ccc23)cc1
 : -20 | -1.0 | -10 | ? | 3.0 | 3
> COc1ccc(Cl)cc1NC(=O)C1CC(=O)N(c2ccc(F)cc2)C1 (configuration not stated)
 : 4 | -1.5 | -22 | 3.7% | -0.6 | -1
> N#Cc1cc([N+](=O)[O-])ccc1N1CCCC1
 : 1 | -0.8 | -7 | -0.9% | 0.1 | -6
> CCOC(=O)NC(=O)CN1C(=O)NC(C)(c2ccccc2)C1=O (configuration not stated)
 : 1 | 3.5 | 2 | 1.2%[38.3 µM] | 0.4 | 3
> O=C(NC(=S)N1CCCCCC1)C1CC1
 : 3 | 0.1 | 22 | -0.6% | 0.4 | 1
> COc1ccc(CCNC(=O)c2sc3ccccc3c2Cl)cc1OC
 : -16 | -0.2 | 3 | 0.4% | 1.6 | -20
> CN(NC(=O)NN(C)C(=O)c1ccccc1)C(=O)c1ccccc1
 : -2 | -5.1 | -15 | -0.5% | 0.0 | 0
> CC1CCCC(C)N1C(=O)COc1ccc(-c2nnco2)cc1 (configuration not stated)
 : 4 | 1.9 | 1 | 6.1% | 0.6 | -1
> COCCCn1c(SCC(=O)NC2CCCC2)nnc1-c1ccccc1
 : 24 | -2.4 | -1 | 1.9% | -1.3 | 3
> O=C(CNC(=O)C1CCCCC1)OCn1nnc2ccccc2c1=O
 : 2 | -0.5 | -10 | 1.5% | 0.0 | 0
> Cc1ccc(Cl)cc1NC(=O)c1cc2ccccc2cc1O
 : 11 | 12 | 14 | ? | 2.0 | 7
> Cc1ccc(Cl)cc1N1CCN(C(=O)c2cc3c(=O)[nH]c4ccccc4c3n2C)CC1
 : 1 | -3.6 | -4 | 4.6% | 0.6 | -3
> Cc1ccc(OCc2cc(C(=O)N(C)CCc3ccccn3)no2)cc1C
 : -2 | -1.6 | -4 | 1.9% | -0.8 | -1
> O=C(/C=C/c1ccco1)N/C(=C\c1ccco1)C(=O)NCCc1nc2ccccc2[nH]1
 : -4 | -2.0 | -21 | -1.1% | -0.1 | -12
> COc1cccc(NC(=O)N2CCCC(C(=O)NC3CCCCC3C)C2)c1 (configuration not stated)
 : 5 | -4.6 | -8 | 1.1% | 0.6 | -5
> O=C1C2C(c3cccc(/C=C/c4ccccc4)c3)CC=CC2C(c2ccc(C(F)(F)F)cc2)N1Cc1ccccc1 (configuration not stated)
 : 0 | -4.0 | -13 | 27% | -0.1&1.0 | -3
> O=C1c2ccccc2NC2(CCCCC2)N1c1ccc(O)cc1
 : -4 | -2.8 | -11 | 0.9% | 2.2 | -5
> Cc1ccc(NS(=O)(=O)c2ccc3[nH]c(=O)oc3c2)c(C)c1
 : 6 | -1.9 | 0 | 0.0%&2.8% | -0.3&0.5 | 0
> O=C1c2ccccc2C(Nc2ccc(S(=O)(=O)N3CCCCC3)cc2)N1Cc1ccco1 (configuration not stated)
 : -21 | -1.8 | -4 | 0.9% | -0.1 | -17
> CSc1cccc(NC(=S)N(Cc2ccc(C)cc2)Cc2cccnc2)c1
 : 5 | -2.7 | -2 | 2.3% | 0.7 | -15
> C(=N\N1CCN(Cc2ccccc2)CC1)/c1cccs1
 : -24 | 0.2 | -28 | -1.5% | 0.8 | -27
> COc1ccc(C(=O)OC(C)C(=O)NC(C)CCc2ccccc2)cc1[N+](=O)[O-] (configuration not stated)
 : 3 | -1.4 | -9 | 7.1% | 1.3 | -4
> COc1ccc(-n2ncc3c(NC(C)C)ncnc32)cc1
 : -13 | -1.6 | -6 | -1.4% | -1.3 | -10
> CSCC[C@H](NC(=O)Nc1ccc(OC(F)(F)F)cc1)C(=O)O
 : -1 | -3.4 | -3 | 0.1% | -0.6 | 5
> Cc1ccc(S(=O)(=O)N[C@H](C(=O)N2CCC(C(=O)N3CCC[C@H]3C(=O)O)CC2)C(C)C)cc1
 : 0 | -4.1 | -7 | 0.0% | 0.8 | 24
> NS(=O)(=O)OCCCc1ccc(C(F)(F)F)cc1
 : -14 | -2.1 | -11 | 0.5% | 1.8 | 12
> CC1C(=O)Nc2ccc(S(=O)(=O)N3CCCCCC3)cc21 (configuration not stated)
 : 2 | -2.2 | -3 | 0.3% | -0.3 | -2
> CC(C)=CC[N+]1(C)CCCCC1
 : -6 | -1.1 | -6 | -2.2% | -0.2 | 0
> CC1CN(S(=O)(=O)c2cccc(C(=O)NN3CCN(C)CC3)c2)CC(C)O1 (configuration not stated)
 : -6 | -2.9 | -6 | -0.2% | -0.2 | 4
> Nc1nc(SCC(=O)NCc2ccc(F)cc2)[nH]c(=O)c1NC(=O)c1ccc(Cl)cc1
 : 8 | 3.9 | 4 | 10% | -0.2 | 1
> COc1ccc(-c2cc(C(=O)NCCCN3CCOCC3)c3ccccc3n2)cc1OC
 : -3 | -1.5 | -26 | -3.6% | 0.2 | -18
> COc1ccc(CN2CCCN(S(=O)(=O)c3ccc(Br)cc3)CC2)cc1
 : -8 | -2.6 | -7 | 1.1% | 1.3 | 2
> NC1=NC(=O)/C(=C/c2cn(Cc3ccccc3)c3ccccc23)S1
 : 10 | 0.7 | 3 | 2.8% | -0.8 | -4
> COC(=O)c1ccccc1NC(=O)CN1CCC(C)CC1
 : 0 | -1.6 | -21 | 12% | 1.7 | 15
> O=C(c1ccc(O)cc1)c1ccc(C(=O)c2ccc(O)cc2)cc1
 : -2 | -0.1 | -10 | 7.1% | 1.0 | -4

# Profiles as entered above. Screens in order: CtBP-E1A blk | D2 ag | D2 potentiator | PINK1 expr mod | TRPML1 agonist | Six1-Eya2 inh
# Shown for NC1=NC(=O)/C(=C/c2cn(Cc3ccccc3)c3ccccc23)S1 = 10 | 0.7 | 3 | 2.8% | -0.8 | -4
# Shown for Cc1ccc(NS(=O)(=O)c2ccc3[nH]c(=O)oc3c2)c(C)c1 = 6 | -1.9 | 0 | 0.0%&2.8% | -0.3&0.5 | 0
# Shown for Cc1ccc(Cl)cc1N1CCN(C(=O)c2cc3c(=O)[nH]c4ccccc4c3n2C)CC1 = 1 | -3.6 | -4 | 4.6% | 0.6 | -3

# Other compounds.
mol | CtBP-E1A blk | D2 ag | D2 potentiator | PINK1 expr mod | TRPML1 agonist | Six1-Eya2 inh
O=C(c1ccc(C(=O)N2CCCc3ccccc32)s1)N1CCCc2ccccc21 | -5 | 0.2 | -2 | -4.6%[38.3 µM] | 1.4 | -1
CCN1CCN(C(=O)c2cc3cc4cc(OC)ccc4nc3s2)CC1 | -6 | -5.1 | -17 | -0.7% | -0.5 | -8
Cc1nn(Cc2ccc([N+](=O)[O-])cc2)c(=O)n1-c1ccc(F)cc1 | -7 | -2.9 | -14 | -3.5%[38.3 µM] | -0.2 | -2
Cc1cccn2cc(CNC(=O)c3ccc(Br)o3)nc12 | 5 | -1.2 | -3 | -0.6% | -0.7 | -1
CCC(=O)NC1(C(F)(F)F)C(=O)Nc2c1c(=O)[nH]c(=O)n2Cc1ccco1 (configuration not stated) | 37 | -1.7 | -4 | 1.7% | -0.8 | 26
O=C(Nc1ccc(F)cc1)c1csc(Cc2ccccc2)n1 | nt | -1.0 | -10 | 0.5% | 0.9 | 2
Cc1ccc(CNC(=O)[C@]2(C)CCC[C@@]3(C)C4CC[C@@]5(C)C[C@]4(CCC32)CC5=O)cc1 (some centres not stated) | nt | -0.8 | -5 | 3.5% | 0.1 | -3

# No enrichment for hits. Share with any hit: about 1.3%.
